Compound activity (PubChem)
Cruzain Triton – cruzain (T. cruzi) inhibition with detergent. purified cruzain, Z-FR-AMC fluorescence, 0.01% Triton. 200,000 tested, 0.43% active. P25779. Potency, µM, without a hit: max response, negative = inhibition, hits mostly inhibitors. AID 1478; active means well fitted curve in the direction sought with a large enough effect; inconclusive means small, poorly fitted or top-dose-only effect, or another doubt; inactive means no such curve, though single readings can be large; an effect the other way counts as inactive or inconclusive;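 further: plate controls were neutral wells for no effect and buffer without enzyme for full effect; nearly all actives have a fitted effect of over 40% in size; top concentration of the series not given in the record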
Target sequence (P25779 123-467 limits assumed): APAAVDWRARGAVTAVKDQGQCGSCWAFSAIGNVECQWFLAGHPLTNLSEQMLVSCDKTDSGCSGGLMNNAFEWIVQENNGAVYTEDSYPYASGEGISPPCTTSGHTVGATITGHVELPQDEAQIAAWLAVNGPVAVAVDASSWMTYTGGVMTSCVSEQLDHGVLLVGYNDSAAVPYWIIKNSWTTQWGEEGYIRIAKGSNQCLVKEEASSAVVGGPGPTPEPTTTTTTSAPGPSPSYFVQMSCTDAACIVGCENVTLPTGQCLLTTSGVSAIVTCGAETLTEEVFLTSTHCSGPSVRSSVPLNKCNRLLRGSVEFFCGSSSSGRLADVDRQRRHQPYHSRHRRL
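15 min RT preincubation of 1.5 nM cruzain with compound, then 2 uM Z-FR-AMC added; kinetic AMC fluorescence, 60 s delta. Triton X-100 0.01%, pH 5.5.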
SARS PLP yeast – SARS-CoV PLP inhibition in yeast. Potency, µM (top dose mostly 32.9 µM), for inactives: at the top dose activity, positive = growth rescue. S. cerevisiae expressing SARS-CoV PLpro, growth rescue; control for the full effect not named in the record. 330,000 tested, 0.19% active. AID 485353; further: 0% is about no effect; nearly all actives have a fitted effect of over 55% in size; growth read by luminescence after 48 h
RE007 growth inh – less growth of the S. pombe RE007 Vpr strain; S. pombe RE007 Vpr strain, BacTiter-Glo ATP luminescence, 24 h; control for the full effect not named in the record; Potency, µM (titrated, usually from 92.2 µM), for the others: at the highest dose activity change, negative = less growth; 360,000 tested, 0.21% active; active = well fitted falling curve with a large enough effect; inconclusive = small, poorly fitted or top-dose-only effect; inactive = no such curve, though single readings can be large or run the other way;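 further: on the % scale 0 is the no-effect control and ±100 the full control effect; nearly all actives have a fitted effect of over 50% in size; the assay follows cell death caused by Vpr and the record does not say whether a fall means rescue or toxicity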
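Fission yeast RE007 carrying one integrated HIV-1 vpr copy, seeded at OD 0.01 in PMG+AL medium with 23 nL pinned compound. Grown 24 h at 30 degrees; viability read by BacTiter-Glo luminescence after 5 min.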
Cruzain inh noDet – blocks cruzain activity in detergent-free assay | P25779 | purified cruzain, Z-FR-AMC fluorescence, no detergent | Potency, µM, without a hit: max response, negative = inhibition, hits mostly inhibitors | 200,000 tested, 2.3% active | AID 1476; active means well fitted curve in the direction sought with a large enough effect; inconclusive means small, poorly fitted or top-dose-only effect, or another doubt; inactive means no such curve, though single readings can be large; an effect the other way counts as inactive or inconclusive;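 further: plate controls were enzyme without inhibitor for no effect and buffer without enzyme for full effect; nearly all actives have a fitted effect of over 40% in size; top concentration of the series not given in the record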
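Purified cruzain at 1.5 nM, pre-incubated 15 min with compound at room temperature in 100 mM sodium acetate pH 5.5, 5 mM DTT, 0.00005% Triton X-100. Reaction started with 2 uM Z-FR-AMC; AMC fluorescence increase over 60 s gives rate.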
LASV entry inh – inhibitors of Lassa virus binding or cell entry; Lassa virus pseudotype entry inhibition, cell reporter; control for the full effect not named in the record; Potency, µM (doses to about 37.9 µM), inactives show at the top dose activity change, negative = inhibition, actives largely listed as inhibitors; 300,000 tested, 1.2% active; AID 540256; active means well fitted inhibition curve with a large enough effect; inconclusive means small, poorly fitted or top-dose-only effect, or effect the other way; inactive means flat fitted curve, though single readings scatter; tested in HEK293 cells; further: on the % scale 0 is the no-effect control and ±100 the full control effect; nearly all actives have a fitted effect of over 50% in size; luciferase read-out
StopGo reporter – FMDV 2A StopGo reporter, luciferase signal; Potency, µM (titrated, usually from 57.9 µM), for inactives: at the highest dose signal change, negative = less light; 410,000 tested, 1.2% active; human cells with a luciferase reporter of 2A StopGo recoding; control for the full effect not named in the record; AID 1159524; active = well fitted falling curve with a large enough effect; inconclusive = small, poorly fitted or top-dose-only effect; inactive = no such curve, though single readings can be large or run the other way; tested in HEK293T cells; further: on the % scale 0 is the no-effect control and ±100 the full control effect; nearly all actives have a fitted effect of over 45% in size; luciferase light after 4 h
NS1 function inh – influenza NS1 inhibition; S. cerevisiae slowed by influenza A NS1, growth recovery by OD600; Potency, µM (titrated, usually from 46.1 µM), for inactives: at the highest dose activity, positive = more growth; 270,000 tested, 0.4% active; further: actives are rising curves; nearly all actives have a fitted effect of over 50% in size
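OD600 was taken as the measure of yeast growth restored by compound in an NS1-expressing S. cerevisiae strain. Cells had been washed out of glucose medium and diluted 1:100 into galactose -URA medium, pH 6.0.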
Marburg entry inh – inhibitors of Marburg virus binding or cell entry; Marburg virus pseudotyped entry inhibition, cell reporter; control for the full effect not named in the record; about a third of the inactives were read at about 46 µM; Potency, µM (series often up to 37.8 µM), for the others: top-dose activity change, negative = inhibition, most hits filed as inhibitors; 300,000 tested, 1.8% active; active = well fitted inhibition curve with a large enough effect; inconclusive = small, poorly fitted or top-dose-only effect, or effect the other way; inactive = flat fitted curve, though single readings scatter; tested in HEK293 cells; about a fifth of its hits are not listed in these tables; further: on the % scale 0 is the no-effect control and ±100 the full control effect; luciferase read-out
Numbers without * were called inactive; ? = inconclusive; . = not tested or not shown; & = joins results of further samples; [ ] = another dose, or the depositor's remark. Unless noted, the call rests on the fitted dose curve; in most records, active means well fitted rising curve with a large enough effect; inconclusive means small, poorly fitted or top-dose-only effect; inactive means no such curve, though single readings can be large or run the other way. Potency means the concentration at half of the fitted maximal effect.

SMILES | Cruzain Triton | SARS PLP yeast | RE007 growth inh | Cruzain inh noDet | LASV entry inh | StopGo reporter | NS1 function inh | Marburg entry inh
COc1ccc(S(=O)(=O)N2CCOC23CCN(C(=O)c2c(F)cccc2Cl)CC3)cc1 | . | -5% | 2% | . | . | 12% | -2% | .
CCCc1cc(C(=O)Nc2cc(Cl)ccc2O)no1 | . | -34% | -5% | . | ? | 31%[activator] | -41% | -23%[46.1 µM]
C[C@]12C=CC(=O)C=C1CCC1C3CC[C@](O)(C(=O)CO)[C@@]3(C)CC3OC312 (stereo partly drawn) | 3.4% | -2% | -18% | -2% | -2% | -10% | -2% | 18%
CCn1cc(/C=C(\NC(=O)c2ccc(OC)c(OC)c2)C(=O)NCCCN2CCOCC2)c2ccccc21 | . | 2% | -8% | . | . | 0% | -9% | .
CC/C(=N\NC(=O)c1cccnc1)c1ccc2c(c1)OCCO2 | . | 1% | 3% | . | 1% | 19% | . | 2%[46.1 µM]
CCOC(=O)c1sc2ncn(CC(=O)Nc3cccc(C)c3)c(=O)c2c1C | 0.4% | . | . | -3% | -11%[46.1 µM] | -14% | . | 4%[46.1 µM]
Cc1ccc(S(=O)(=O)N(C)CC(=O)Nc2ccccc2)cc1 | 7.5% | -1% | 17% | 1% | -10% | 29% | -10% | -7%
O=C(c1cccc(NS(=O)(=O)c2cccc(C(F)(F)F)c2)c1)N1CCOCC1 | . | -7% | 5% | . | -2% | 17% | -5% | 8%
C=CCc1c(C)[nH]c(=O)[nH]c1=O | . | -1% | 3% | . | 2%[46.1 µM] | 12% | -3% | -19%[46.1 µM]
O=C(c1cnc(-c2ccc(Cl)cc2)s1)c1ccc(Cl)cc1Cl | 2.2% | 3% | 3% | ? | ? | 11% | 1% | -3%
C/C(=N\NC(=O)c1c(C)nc2ccccn12)c1ccco1 | . | -3% | -7% | . | 0% | 3% | . | 16%[46.1 µM]
Cc1ccccc1C(=O)N1CCN(c2ccc(NC(=O)c3cccs3)cc2)CC1 | . | -4% | -11% | . | -26% | ? | -5% | ?
Cn1c(=O)c2c(nc(CN3CCC(C(N)=O)CC3)n2CCCc2ccccc2)n(C)c1=O | 0.2% | 2% | -2% | -4% | -6% | -25% | -6% | 0%
CC(C)[C@H](NC(=O)c1nn(Cc2ccccc2)c(=O)c2ccccc12)C(=O)O | . | 1% | 2% | . | 3%[46.1 µM] | -2% | 11% | ?
CCn1cc(C(=O)N2CCOCC2)c2ccccc21 | . | -3% | 5% | . | -3%[46.1 µM] | -23% | 4% | -23%[46.1 µM]
CC1Cc2ccccc2N1C(=O)CN1CCC(C(N)=O)CC1 (stereo not drawn) | . | 0% | 8% | . | -7% | -4% | . | 1%
Cc1c(C)c2ccc(OCC(=O)NC(Cc3c[nH]c4ccc(O)cc34)C(=O)O)c(C)c2oc1=O (stereo not drawn) | . | -2% | 0% | . | . | -16% | 18% | .
Cc1ccc(C(=O)/C=C/C(=O)c2ccc(C)cc2)cc1 | . | -9% | -17% | . | -19% | ? | . | ?
Cn1c(N)c(C(=O)COC(=O)COc2ccc(Br)cc2)c(=O)n(C)c1=O | . | -2% | 21% | . | 7% | -17% | . | 0%
O=C1NN(c2ccccc2)C(=O)/C1=C\c1ccccc1 | . | 1% | 2% | . | 17%[46.1 µM] | -14% | 18% | ?

Grouped by structure, those above with a Cl atom (3)
SMILES | Cruzain Triton | SARS PLP yeast | RE007 growth inh | Cruzain inh noDet | LASV entry inh | StopGo reporter | NS1 function inh | Marburg entry inh
COc1ccc(S(=O)(=O)N2CCOC23CCN(C(=O)c2c(F)cccc2Cl)CC3)cc1 | . | -5% | 2% | . | . | 12% | -2% | .
CCCc1cc(C(=O)Nc2cc(Cl)ccc2O)no1 | . | -34% | -5% | . | ? | 31%[activator] | -41% | -23%[46.1 µM]
O=C(c1cnc(-c2ccc(Cl)cc2)s1)c1ccc(Cl)cc1Cl | 2.2% | 3% | 3% | ? | ? | 11% | 1% | -3%

Looked up above.
Entry of CCn1cc(C(=O)N2CCOCC2)c2ccccc21 in Marburg entry inh: -23%[46.1 µM]
Entry of Cc1c(C)c2ccc(OCC(=O)NC(Cc3c[nH]c4ccc(O)cc34)C(=O)O)c(C)c2oc1=O (stereo not drawn) in RE007 growth inh: 0%

More entries
SMILES | Cruzain Triton | SARS PLP yeast | RE007 growth inh | Cruzain inh noDet | LASV entry inh | StopGo reporter | NS1 function inh | Marburg entry inh
Brc1ccc(NCc2nnc3n2CCCCC3)cc1 | -2.1% | 2% | 13% | 2% | 1% | . | 0% | 15%
c1cnc(Sc2ccc3nnnn3n2)nc1 | . | 2% | 8% | . | -7%[46.1 µM] | 17% | . | -26%[46.1 µM]
O=C(Cn1cc(C(F)(F)F)cc(Cl)c1=O)NCc1ccc(Cl)cc1Cl | . | 13% | -4% | . | -10%[46.1 µM] | 2% | 16% | 3%[46.1 µM]
CSc1nsc(SCC(=O)Nc2ccc(OC(C)=O)cc2)n1 | . | 0% | 3% | . | ? | 36%[activator] | -1% | ?
O=C(Cn1c(=O)oc2ccccc21)Nc1cccc(Cl)c1 | . | -4% | -14% | . | . | -19% | -3% | .
Cc1ccc(Cn2c(SCC(=O)NCc3ccccc3)nc3ccsc3c2=O)cc1 | 1.3% | . | . | 7% | -1%[46.1 µM] | -18% | . | .
COc1cccc(NC(=O)N2CCCC2C(=O)NCC(C)C)c1 (stereo not drawn) | 5.7% | -2% | 10% | 0% | 3% | -21% | -8% | 3%
Cc1cc(N2CCN(c3ccccc3)CC2)nc(-c2ccccc2)n1 | -0.9% | -15% | -25% | 6% | ? | -8% | -61% | -7%
CCSc1nnc(NC(=O)CSc2nc3c(cc2C#N)CCCC3)s1 | -14% | -3% | 4% | 6% | ? | . | 3% | ?
CC(C)CCNC(=O)C(c1ccco1)N(CC1CCCO1)C(=O)Cn1nnc2ccccc21 (stereo not drawn) | 2.4% | 14% | 14% | ? | 4% | 11% | 5% | 4%&4%
Cc1[nH]nc2c1C(c1cccc(OC(=O)N3CCOCC3)c1)C(C#N)=C(N)O2 (stereo not drawn) | -2.0% | -7% | 17% | 0% | 17% | -23% | -3% | ?
CC(c1ccccc1)N1C(=O)c2ccccc2C1(O)Cc1ccccc1 (stereo not drawn) | . | -1% | -3% | . | -3%[46.1 µM] | -17% | -3% | ?
CC(C)(C)C1=CC(=O)C(=O)C(C(C)(C)C)=C1 | -6.2% | -67% | 13% | 2% | ? | 28µM* | -19% | -20%
CCN(CC)S(=O)(=O)c1ccc2c(c1)c(=O)c(C(=O)NCCc1ccc(OC)c(OC)c1)cn2C | -1.0% | 2% | -2% | -9% | -26%[46.1 µM] | -2%&-12% | 8% | -5%[46.1 µM]
Cc1cc2oc(C(=O)N(Cc3ccco3)Cc3ccccc3Cl)c(C)c2cc1C | -4.0% | . | . | ? | -1%[46.1 µM] | 0% | . | -5%[46.1 µM]
CC(C)(C)c1ccc(OCc2cc(=O)n3c4c(sc3n2)CCCC4)cc1 | 1.6% | . | . | 0% | -1%[46.1 µM] | -3% | . | 13%[46.1 µM]
CCOC(=O)c1cccc(NC(=O)CSc2cc(=O)n(C)c3ccccc23)c1 | -2.1% | . | . | ? | 2%[46.1 µM] | -1% | . | -24%[46.1 µM]
COc1cc(NC(=O)c2noc3c2CCCC3)c(OC)cc1Cl | -3.2% | -6% | 8% | -9% | 8% | 65%[activator] | -6% | -1%
COc1ccc(NS(=O)(=O)c2cccc(C(=O)N/N=C/c3cn(-c4ccccc4)nc3-c3ccc(OC)cc3)c2)cc1 | . | 0% | 6% | . | . | 30% | 1% | .
COc1ccc(OC)c(NC(=O)CSc2nnc(C3CCCCC3)n2-c2ccccc2)c1 | -7.1% | -1% | 8% | 28% | ? | ? | -4% | ?
COCCCNC(=O)C1CCC(CNS(=O)(=O)c2ccc(Cl)cc2)CC1 (stereo not drawn) | . | 1% | -2% | . | . | 1% | 3% | 7%[46.1 µM]
CN(NC(=O)Nc1ccc(Cl)cc1)c1ncc(C(F)(F)F)cc1Cl | . | . | -14% | . | -8% | ? | . | ?
O=c1[nH][nH]c(-c2ccccc2O)c1C(C[N+](=O)[O-])c1ccc(Cl)cc1Cl (stereo not drawn) | -9.7% | -6% | -4% | 2% | 4% | -20% | -5% | -10%
Cn1c(=O)c2c(nc(SCC(=O)Nc3ccc(F)c(F)c3)n2Cc2ccccc2F)n(C)c1=O | 0.5% | . | . | 14% | 10%[46.1 µM] | -8% | . | 18%[46.1 µM]
CSc1ncc2ncn(C3OC(CO)C(O)C3O)c2n1 (stereo not drawn) | . | 1% | -4% | . | 2% | -26% | 5% | 1%[46.1 µM]
Cc1cc(N2CCN(C)CC2)nc2ccc(NC(=O)Nc3ccc(F)cc3F)cc12 | 0.0% | . | . | 10% | ? | 35%[activator] | . | .
O=C(c1ccccc1)c1sc(N2CCCCCC2)nc1-c1ccccc1 | -3.9% | -15% | 10% | 7% | -15% | ? | 5% | -23%
Cc1cc2oc(C(=O)Nc3ccc(S(=O)(=O)Nc4ncccn4)cc3)cc(=O)c2cc1Cl | . | 1% | -3% | . | . | -18% | 4% | .
Cc1ccc(CNC(=O)C(=O)NCC2OCCN2C(=O)c2ccc(Cl)cc2)cc1 (stereo not drawn) | -3.3% | 5% | 11% | 1% | 4% | -3% | -35% | -5%
CC(NC(=O)NNC(=O)c1ccncc1)(C(F)(F)F)C(F)(F)F | . | 0% | 14% | . | 14% | 17% | . | -20%[46.1 µM]
COc1cc(OCc2ccccc2)c2c(CCC(=O)O)cc(=O)oc2c1 | . | . | 6% | . | 0% | -25% | . | 21%
Cc1c(Cl)cccc1NC(=O)CSc1nc(=O)[nH]c2c1CCC2 | -0.9% | . | . | -5% | 1%[46.1 µM] | -19% | . | .
CC(=O)c1cccc(NC(=O)C=C(C)C)c1 | 3.5% | -1% | 8% | 3% | 7% | . | -3% | -4%
Cc1nnc(C)n1/N=C/c1ccccc1 | 4.7% | -2% | -2% | 2% | 5% | 14% | 5% | 0%
